# Screening data from PubChem.
# HTT promoter inh: Primary qHTS for Identification of Small Molecule Inhibitors of Huntingtin Promoter Activity; HEK293 HTT promoter firefly luciferase reporter (activity 0% = vehicle and -100% = no light), 24 h; Potency, µM (top dose mostly 57.5 µM), inactives show at the top dose activity change, negative = inhibition, usual class: inhibitors; 0.93% of 48,000 active; active = well fitted inhibition curve with a large enough effect; inconclusive = small, poorly fitted or top-dose-only effect; inactive = no such curve, though single readings can be large or run the other way; also: nearly all actives have a fitted effect of over 50% in size
#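 Quantitative HTS used concentration series of up to 57.5 uM final on HEK293 luciferase reporter cells, 24 h at 37 degrees C. Readout was Dual-Glo firefly luminescence.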
# PMP22 txn prim: Cell-based coincidence reporter assay to measure PMP22 gene transcription in S16 Pmp22-F2sN cells - Primary screen; S16 Pmp22-F2sN Schwann cells (luciferase reporters placed in the Pmp22 gene), FLuc/NLuc coincidence luminescence, 24 h; Potency, µM (top dose mostly 57.5 µM), without a hit: top-dose activity change, negative = inhibition, actives largely listed as inhibitors; 2% of 43,000 active; AID 1508649, 2021; active = clear falling dose curves in both reporters; inconclusive = both reporters move, but less clearly or upward; inactive = either reporter flat; the % is the NLuc reporter signal; also: % is scaled to controls: 0 for no effect and ±100 for the full control effect; some results filed as inactive show a strong effect at the top dose
#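 S16 Schwann cells carrying FLuc/NLuc coincidence reporter in the Pmp22 3' UTR treated with compound 24 h at 37C; FLuc then NLuc luminescence read sequentially by dual-luciferase reagents.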
# The depositor's hits bear a star; ? = inconclusive; / = not tested or not shown; [ ] = another dose, or the depositor's remark. Potency is read from the fitted curve at half-maximal effect.
SMILES,HTT promoter inh,PMP22 txn prim
CCOc1ccc(NC(=O)CSC2=Nc3ccccc3C3=NC(CC(=O)NCc4ccccc4OC)C(=O)N23)cc1 (centres undefined),?,0%
O=C(NCc1ccc(F)cc1)c1cc2cccc3c2n1CCS3,-29%,?
Cc1ccc(-n2ncc3c(Nc4cccc(C(F)(F)F)c4)ncnc32)cc1C,?,?
O=C(Nc1cccc(Cl)c1)c1cc(-c2ccc3c(c2)OCCO3)on1,?,-16%
COCc1cc(C)nc2sc3c(=O)n(-c4cc(C)ccc4C)nnc3c12,-3%,-11%
Cc1ccc(C(=O)Nc2nc(-c3nnn(-c4cccc(C(F)(F)F)c4)c3C)ns2)cc1,-26%,-4%
CCN(C(=O)c1cc(S(=O)(=O)N2CCc3ccccc32)cn1C)c1cccc(C)c1,?,-41%
Cc1cc(F)ccc1NC(=O)c1ccc2nc(Cc3ccccc3)oc2c1,-28%,?
O=C(Nc1cccc2cccnc12)c1ccccc1[N+](=O)[O-],24%,4%
COc1cccc(-n2c(SCC(=O)Nc3cc(C)ccc3C)nc3c(oc4ccccc43)c2=O)c1,-10%,-9%
CC(CNC(=O)c1sc2ncccc2c1-n1cccc1)c1ccccc1 (centres undefined),?,?
O=[N+]([O-])c1cc(-c2nc(-c3ccccc3)no2)ccc1N1CCOCC1,-29%,-18%
COc1ccc2c(c1)c1c(c(=O)n(CCc3ccccc3)c(=O)n1Cc1ccc(F)cc1)n2C,-20%,1%
O=C(NCc1ccc(F)cc1)c1ccc2c(c1)N(Cc1ccc(F)cc1Cl)C(=O)CS2,-14%,-3%
CSc1ccc(CNC(=O)C2CCCN(S(=O)(=O)N(C)c3ccc(F)cc3)C2)cc1 (centres undefined),22µM*,-33%
CCOC(=O)C1=C(CN2CCN(C)CC2)NC(=O)NC1c1ccc(F)cc1 (centres undefined),-2%,-1%
Cn1cc(C(=O)NCc2ccccc2)c(=O)c2cc(S(=O)(=O)N3CCCCCC3)ccc21,-5%,-43%
CCOC(=O)c1ccc(NC(=O)CCc2c(C)nc3cc(-c4ccc(OC)cc4OC)nn3c2C)cc1,-16%,13%
CN(C)c1ccc(NC(=O)Cn2c(SCc3ccccc3F)nc3cccnc32)cc1,-21%,-42%
CC(=O)c1cc2c(cc1N/C(=N/S(=O)(=O)c1ccc(C)cc1)c1ccc(Cl)cc1)OCO2,-9%,7%
Cc1nn(CCC(=O)Nc2cccc(C#N)c2)c(C)c1S(=O)(=O)N1CCC(C)CC1,?,-19%
Cc1cccn2c(=O)c3cc(C(=O)NCc4ccccc4Cl)sc3nc12,-13%,-12%
CCc1ccc(-c2[nH]c3c(c2-c2c(-n4cccc4)n(C)c(=O)n(C)c2=O)c(=O)n(C)c(=O)n3C)cc1,-4%,-3%
COc1ccc(Cl)cc1NC(=O)CSc1nc2ccccc2c2nc(-c3ccccc3)nn12,5%,-15%
CCOc1ccc(NC(=O)c2oc(=O)c3ccccc3c2-c2ccc(C)cc2)cc1,?,?
Cc1ccc(S(=O)(=O)c2cc3cc(C(=O)O)ccc3oc2=O)cc1,-18%,-17%
CCOc1ccc(-c2cc(NC(=O)Nc3ccc(Cl)cc3)c(C(=O)OC)s2)cc1,54%[activator],-20%
Cc1cc(C)n(-c2nc3cc(Cl)c(Cl)cc3nc2Nc2c(C)cccc2C)n1,-15%,2%
CC1=C(C#N)C(NC(=O)c2cccc(Cl)c2)(C(F)(F)F)C(=O)N1 (centres undefined),-6%,31%
CCOC(=O)Cn1c(=O)n(C2CCCCC2)c2nc(-c3ccccc3Cl)nc(C(N)=O)c21,-14%,-25%
COc1cc2c(=O)n(CCC(=O)NCC3CCCO3)c(=O)n(CC(=O)Nc3ccc(F)cc3)c2cc1OC (centres undefined),-19%,9%
Clc1cccc(-n2ncc3c(NCCC4=CCCCC4)ncnc32)c1,-10%,14%
Cc1ccc(NC(=O)CSc2nccn2Cc2ccc3c(c2)OCO3)c(C)c1,-1%,-24%
COc1ccc(NC(=O)CSc2nc(C)cc(C)c2C(=O)Nc2cccc(C)c2)cc1,?,-4%
Cc1ccccc1N1CC(c2nnc(NC(=O)c3ccco3)s2)CC1=O (centres undefined),-10%,36%
CCOCCCNC(=O)c1cn(CC(C)C)c(=O)c2c1c1ccccc1n2C,-12%,-15%
CC(=O)N1c2ccc(S(=O)(=O)N3CCCCCC3)cc2CC1C(=O)NCc1ccc(Cl)cc1 (centres undefined),-17%,?
COc1ccc(-n2c3c(cc(-c4nc(-c5ccc(Cl)cc5)cs4)c2=O)C(=O)CC(C)(C)C3)cc1Cl,-11%,?
Cc1cc(C)cc(NC(=O)NCCn2nnc3cc(S(=O)(=O)N(C)C)ccc32)c1,-22%,2%
O=C(O)C=Cc1ccc(Cn2ccnc2)cc1,16%,/
COc1ccccc1NC(=O)CSC1=Nc2ccccc2C2=NC(CC(=O)NCc3ccco3)C(=O)N12 (centres undefined),62%[activator],0%
Cc1ccc(-c2csc(=Nc3ccccc3)n2Cc2ccc3c(c2)OCO3)cc1,-29%,?
CCN(CC)CCNC(=O)c1ccc(-c2nc(CN3CCc4ccccc43)c(C)o2)cc1,-27%,?
Cc1cccc(NC(=O)CSc2cn(CC(=O)N3CCCCCC3)c3ccccc23)c1,-11%,-23%
COc1cccc(C(=O)Nc2ccc3nc(SCc4ccc(C)cc4)sc3c2)c1,?,-22%
CC(C)c1ccc(OC(=O)c2cc(-c3ccc(Cl)cc3)on2)cc1,-15%,1%
CCN(CC)CCN(C(=O)c1ccco1)c1nc2c(C)c(C)ccc2s1,2%,?
CCOc1ccccc1N(C)C(=O)c1nn(-c2ccc(C)cc2)c(=O)c2c1c1ccccc1n2C,-1%,?
CCOC(=O)c1c(S(=O)(=O)N2CCCC(C(=O)Nc3cccc(C)n3)C2)c(C)n(C)c1C (centres undefined),-8%,24%
CCn1c(C)c(C)c2cc(C(=O)NCc3ccc(OC(C)C)cc3)ccc21,4%,0%
CCN1CCN(C(c2ccc(OC)cc2)c2c(O)cc(C)n(CCOC)c2=O)CC1 (centres undefined),-7%,11%
COc1c(Cl)cc(Cl)cc1/C=C(\C#N)c1nc(-c2ccc(Cl)cc2)cs1,-37%,-3%
Nc1ncn([C@@H]2O[C@H](CO)[C@@H](O)[C@H]2O)c(=O)n1,?,/
CCCc1cnc2c(c1SCC(=O)Nc1ccc(C)c(Cl)c1)c(=O)n(C)c(=O)n2C,?,-29%
Cc1cc(C)c(NC(=O)C(C)n2c(=O)c(C(F)(F)F)nc3ccccc32)c(C)c1 (centres undefined),-26%,18%
CCOC(=O)CSc1nc2cc(OC)c(OC)cc2c2nc(-c3ccccc3)nn12,1%,-29%
O=C(CN1CCN(c2ccc(Cl)cc2)CC1)Nc1ccc(F)cc1F,19%,9%
NC(=O)c1cc(S(=O)(=O)NCc2ccccc2)cs1,-17%,-5%
COc1ccc(-c2cn3c(n2)sc2cc(C(=O)NCCc4ccccc4)ccc23)cc1,-11%,0%
CCCCOc1ccc(C2c3c(-c4ccccc4O)n[nH]c3C(=O)N2Cc2ccncc2)cc1OC (centres undefined),?,?

# The listing continues:
SMILES,HTT promoter inh,PMP22 txn prim
CCOC(=O)c1cnc2c(ccc3ccccc32)c1Nc1ccccc1OC,?,13%
CCCCn1c(=O)c2oc3ccccc3c2n(CC(=O)Nc2cccc(Cl)c2)c1=O,-2%,-20%
Clc1cccc(-n2ncc3c(NCCc4ccccc4)ncnc32)c1,9%,-117%
O=C1C(=O)N(C2CCNCC2)CCN1Cc1ccccc1,0%,32%
Cc1cc2c(cc1S(=O)(=O)NCc1ccc(F)cc1)n(C)c(=O)c(=O)n2C,-9%,-26%
Cc1cc2oc(C(=O)Nc3sc4c(c3C(=O)NCC3CCCO3)CCCC4)cc(=O)c2cc1C (centres undefined),-19%,-24%
CCc1ccc(NC(=O)Cn2nnc(-c3ccccc3N)n2)cc1,-15%,-11%
Cc1ccccc1C(=O)Oc1cc(-c2ccc3c(c2)OCO3)cc(=O)c2c(C)oc(C)c12,-30%,-13%
O=S(=O)(c1ccc(Br)cc1)c1nc(-c2ccco2)oc1SCc1ccccc1Cl,-28%,-13%
NC/C=C/C(=O)O,10%,/
CCOCCCNC(=O)c1cc2c(=O)n3ccccc3nc2s1,54%[activator],-13%
COc1cccc(CNC(=O)CCCN2C(=O)CCn3nc(-c4cccn4C)cc32)c1,18%,?
CCOC(=O)CC(NC(=O)N1CCC(CN2CCC(C)CC2)CC1)c1ccccc1 (centres undefined),-3%,-19%
COc1ccc2c(c1)c1c(c(=O)n(-c3cccc(C)c3)c(=O)n1CC(=O)N1CCCC1)n2C,-6%,?
Cc1cccc(OCC(=O)N(Cc2ccc(C(C)C)cc2)Cc2ccco2)c1C,?,?
COC(=O)c1c(NC(=O)COc2c(C)ccc(C)c2C)sc2c1CCC(C)C2 (centres undefined),-4%,-1%
CC1=C(C(=O)Nc2ccccc2C)C(c2ccccn2)n2nc(SCc3ccccc3F)nc2N1 (centres undefined),-10%,?
COc1ccc(C2=C(C(C)=O)Sc3nnc(-c4ccc(C)cc4)n3N2C(C)=O)cc1OC,-19%,?
CCOc1ccccc1N(CC(=O)Nc1ccc(OC)c(Cl)c1)S(=O)(=O)c1ccccc1,?,-5%
CCOc1ccccc1NC(=O)C1CCC(CNS(=O)(=O)c2ccc3c(c2)CCCC(=O)N3)CC1 (centres undefined),?,?
CN1C(=O)c2ccccc2Sc2ccc(NC(=O)COc3ccc(F)cc3)cc21,?,?
O=C(c1cc(-c2ccc(F)cc2)on1)N1CCN(c2ccc(F)cc2)CC1,-5%,-14%
Fc1ccc(Nc2nc(SCc3ccccc3F)nc3ccccc23)cc1,-29%,?
Cc1cc(NC(=O)Nc2csc3c2CCCC3)ccc1Br,-6%,?
CSc1ccc(CCNC(=O)CCc2c(C)nc3c(c(C)nn3-c3ccccc3)c2C)cc1,20%,-15%
CCOC(=O)c1c(C)[nH]c(C)c1S(=O)(=O)N1CCN(c2ccc(Cl)cc2)CC1,?,?
COc1ccc(/C=C/C(=O)N2CCC(c3nc4ccccc4o3)CC2)cc1OC,?,-11%
CC1CCn2c(nc3cc(C(=O)NCc4ccc(F)cc4)ccc32)C1 (centres undefined),10%,0%
Fc1ccccc1Nc1c2c(nc3ccccc13)CCC2,?,?
CC(C)c1cc2c(cc1S(=O)(=O)O)[C@@]1(C)CCC[C@@](C)(C(=O)O)[C@@H]1CC2,12%,/
CC1Cc2cc(S(=O)(=O)NCc3ccccc3Cl)ccc2N1C(=O)C1CCC1 (centres undefined),28µM*,?
C=C(CC)C(=O)c1ccc(OCC(=O)O)c(Cl)c1Cl,?,/
COc1ccc(OC)c(NC(=O)Cc2c(C)n(C(=O)c3ccc(Cl)cc3)c3ccc(OC)cc23)c1,-10%,?
Cc1ccccc1CNC(=O)CCC(=O)N1CCSc2ccccc21,?,2%
COC(=O)c1scc(-c2ccc(C)cc2)c1S(=O)(=O)N1CCN(c2ccccc2)CC1,-18%,4%
COc1ccc(NC(=O)Cn2c(=O)n(-c3ccc(C)cc3)c(=O)c3c2c2cc(C)ccc2n3C)cc1,?,0%

# Compounds listed so far that have an aryl thioether with sulfur outside any ring (14):
SMILES,HTT promoter inh,PMP22 txn prim
COc1cccc(-n2c(SCC(=O)Nc3cc(C)ccc3C)nc3c(oc4ccccc43)c2=O)c1,-10%,-9%
CSc1ccc(CNC(=O)C2CCCN(S(=O)(=O)N(C)c3ccc(F)cc3)C2)cc1 (centres undefined),22µM*,-33%
CN(C)c1ccc(NC(=O)Cn2c(SCc3ccccc3F)nc3cccnc32)cc1,-21%,-42%
COc1ccc(Cl)cc1NC(=O)CSc1nc2ccccc2c2nc(-c3ccccc3)nn12,5%,-15%
Cc1ccc(NC(=O)CSc2nccn2Cc2ccc3c(c2)OCO3)c(C)c1,-1%,-24%
COc1ccc(NC(=O)CSc2nc(C)cc(C)c2C(=O)Nc2cccc(C)c2)cc1,?,-4%
Cc1cccc(NC(=O)CSc2cn(CC(=O)N3CCCCCC3)c3ccccc23)c1,-11%,-23%
COc1cccc(C(=O)Nc2ccc3nc(SCc4ccc(C)cc4)sc3c2)c1,?,-22%
CCCc1cnc2c(c1SCC(=O)Nc1ccc(C)c(Cl)c1)c(=O)n(C)c(=O)n2C,?,-29%
CCOC(=O)CSc1nc2cc(OC)c(OC)cc2c2nc(-c3ccccc3)nn12,1%,-29%
O=S(=O)(c1ccc(Br)cc1)c1nc(-c2ccco2)oc1SCc1ccccc1Cl,-28%,-13%
CC1=C(C(=O)Nc2ccccc2C)C(c2ccccn2)n2nc(SCc3ccccc3F)nc2N1 (centres undefined),-10%,?
Fc1ccc(Nc2nc(SCc3ccccc3F)nc3ccccc23)cc1,-29%,?
CSc1ccc(CCNC(=O)CCc2c(C)nc3c(c(C)nn3-c3ccccc3)c2C)cc1,20%,-15%
